Assay outcomes as filed in PubChem.
KCNQ2 inh – KCNQ2 potassium channel inhibitors, primary screen, cell-based, CHO-K1, FluxOR thallium flux, B-score (AID 2156). Potassium voltage-gated channel subfamily KQT member 2 (Rattus norvegicus), O88943. 20 min; hits give low values; only compounds with negative scores are shown here; some inactives read as strong as hits. B-score at 10 µM. hit rate 1.1% among 310,000;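 active means fluorescence ratio B-score at most minus 3 library SDs, with starting brightness B-score within 2 library SDs, cut at about -5.5 in these data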
Target sequence (O88943 whole entry, looked up): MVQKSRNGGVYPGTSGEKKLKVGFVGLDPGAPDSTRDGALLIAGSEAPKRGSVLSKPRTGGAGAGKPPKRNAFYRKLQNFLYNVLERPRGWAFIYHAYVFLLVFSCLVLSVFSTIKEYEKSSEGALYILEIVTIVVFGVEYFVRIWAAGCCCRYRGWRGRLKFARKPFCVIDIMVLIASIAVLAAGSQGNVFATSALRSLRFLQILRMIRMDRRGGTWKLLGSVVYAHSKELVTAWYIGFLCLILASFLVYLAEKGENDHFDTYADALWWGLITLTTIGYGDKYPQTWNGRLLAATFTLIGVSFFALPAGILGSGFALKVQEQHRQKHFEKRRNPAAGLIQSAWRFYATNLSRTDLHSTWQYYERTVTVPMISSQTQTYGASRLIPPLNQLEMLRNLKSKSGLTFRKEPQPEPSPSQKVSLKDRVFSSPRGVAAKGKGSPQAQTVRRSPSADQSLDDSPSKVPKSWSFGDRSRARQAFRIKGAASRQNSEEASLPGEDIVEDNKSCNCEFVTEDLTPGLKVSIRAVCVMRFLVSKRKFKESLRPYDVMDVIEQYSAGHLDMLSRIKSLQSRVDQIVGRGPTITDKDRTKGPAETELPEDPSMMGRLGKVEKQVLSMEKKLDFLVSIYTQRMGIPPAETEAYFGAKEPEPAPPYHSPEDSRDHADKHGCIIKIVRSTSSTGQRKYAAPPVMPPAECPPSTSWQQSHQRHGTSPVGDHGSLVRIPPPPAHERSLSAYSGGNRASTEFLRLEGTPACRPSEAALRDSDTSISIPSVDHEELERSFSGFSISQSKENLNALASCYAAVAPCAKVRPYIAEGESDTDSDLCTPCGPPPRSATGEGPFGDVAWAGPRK
KCNQ2 inh baseline – also measured in KCNQ2 inh; calls as there; B-score; measured here: initial fluorescence intensity artifact check;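 brightness before thallium and not channel activity; 0 = typical well and far values either way flag optical interference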
* = called active by the depositor; i = inactive.

nr	structure	KCNQ2 inh	KCNQ2 inh baseline
1	CCn1ccnc1CN(C)C(=O)C1CCC(=O)N(CCc2cccc(F)c2)C1 (stereo not drawn)	i	1.8
2	CCc1ccc(OCC(=O)NN2Cc3ccccc3C2=N)cc1	i	1.9
3	O=S(=O)([N-]c1nc2ccccc2nc1-[n+]1ccc(CCCc2ccccc2)cc1)c1cccs1	i	0.54
4	O=C1CN(C(=O)COC(=O)/C=C/c2ccc(S(=O)(=O)N3CCOCC3)cc2)c2ccccc2N1	i	0.7
5	COc1ccccc1Nc1nc2nonc2nc1N1CCCCC1C (stereo not drawn)	i	-1.5
6	O=C(CSc1n[nH]c(-c2ccccc2)n1)Nc1ncc(Br)cc1Br	i	0.32
7	O=C(NC1=NCCS1)[C@H](Cc1ccccc1)N1C(=O)c2ccccc2C1=O	i	0.15
8	CC(C)C(CC(=O)NCc1ccco1)c1ccco1 (stereo not drawn)	i	0.44
9	CN(CCOC(=O)c1ccccc1)Cc1ccccc1	i	0.77
10	Cc1nc2cc3ccccc3cc2c(=O)[nH]1	i	0.67
11	NC(=O)c1ccc[n+](CC(=O)c2cccc([N+](=O)[O-])c2)c1	i	0.45
12	COc1ccc(OCC(=O)Nc2ccncc2)cc1	i	1.8
13	O=C(Nc1ccc(S(=O)(=O)Nc2nccs2)cc1)c1cccc(F)c1	i	1.2
14	COc1ccc(-c2noc(CSc3nc4sc(C)c(C)c4c(=O)n3-c3ccccc3)n2)cc1OC	i	0.58
15	Clc1ccc2ncc(-c3nnnn3-c3ccccc3)c(-c3ccccc3)c2c1	i	0.52
16	COc1cccc(CSc2nnc(C(F)(F)F)n2Cc2ccc(F)cc2)c1	i	-0.21
17	O=C(CN1C(=O)NC2(CCCC2)C1=O)Nc1cc(Cl)ccc1N1CCCC1	i	0.44
18	COc1ccc(C2Nc3ccccc3C(=O)N2Cc2ccco2)cc1COc1ccc(F)cc1 (stereo not drawn)	i	0.09
19	CCOC(=O)C1CCCN(CC(O)COCc2ccc3c(c2)OCO3)C1 (stereo not drawn)	i	1.1
20	CC(=O)COC(=O)c1cccc(N2C(=O)C3C4C=CC(C4)C3C2=O)c1 (stereo not drawn)	i	1.3
21	COC(=O)c1scc(C)c1NC(=O)Cc1ccccc1	i	-0.52
22	CC(NC(=O)c1ccc2c(c1)OCCO2)c1ccc(S(N)(=O)=O)cc1 (stereo not drawn)	i	1.1
23	CC1(CCc2ccc3c(c2)OCO3)NC(=O)c2ccccc2N1 (stereo not drawn)	i	-0.98
24	COc1ccc(-n2nc(C(=O)Nc3nc4ccc(OC)cc4s3)c3ccccc3c2=O)c(OC)c1	i	0.21
25	COCCn1c(C)cc(C(=O)COC(=O)CCc2ccc(S(=O)(=O)N3CCOCC3)cc2)c1C	i	-0.34
26	O=C(Nc1ccccc1C(F)(F)F)NC1CCCCCCC1	i	0.31
27	CCN(CC)S(=O)(=O)c1ccc(C(=O)Nc2nnc(-c3ccco3)o2)cc1	i	0.82
28	O=C(Cn1nnc(-c2cccs2)n1)NCc1ccccc1	i	0.54
29	CCCCOC(=O)N1CCOCCOCCOCCOCC1	i	1.1
30	COc1ccc(O)c(C2NC(CC(C)C)(C(=O)O)C3C(=O)N(Cc4ccccc4)C(=O)C23)c1 (stereo not drawn)	i	0.47

Complete entries from above.
CCOC(=O)C1CCCN(CC(O)COCc2ccc3c(c2)OCO3)C1 (stereo not drawn) in the list: KCNQ2 inh: i; KCNQ2 inh baseline: 1.1
CCCCOC(=O)N1CCOCCOCCOCCOCC1 in the list: KCNQ2 inh: i; KCNQ2 inh baseline: 1.1
COCCn1c(C)cc(C(=O)COC(=O)CCc2ccc(S(=O)(=O)N3CCOCC3)cc2)c1C in the list: KCNQ2 inh: i; KCNQ2 inh baseline: -0.34

Next section.
nr	structure	KCNQ2 inh	KCNQ2 inh baseline
31	CCN(CC)C(=O)c1cc2sc3ccccc3c2s1	i	-1
32	O=C(O)CC1(CC(=O)NCc2ccccn2)CCCCC1	i	-0.09
33	Cc1ccc(OCC(O)Cn2c(N)nc3c2c(=O)n(C)c(=O)n3C)cc1 (stereo not drawn)	i	-0.97
34	CCCNC(=O)CN(C1CCCCC1)S(C)(=O)=O	i	0.78
35	Cc1ccc2nc(N3CCN(C(=O)CCC(=O)O)CC3)nc(-c3ccccc3)c2c1	i	0.07
36	CCCc1cc2c(cc1NC(=O)c1ccccc1Cl)OCO2	i	-0.37
37	Cc1ccc(Nc2ncnc3ccccc23)cc1	i	0.01
38	COc1ccccc1/C=C1/C(=O)ON=C1C	i	-0.65
39	CCN(CCn1cccn1)C(=O)C1CCC(=O)N(CCN2CCOCC2)C1 (stereo not drawn)	i	0.99
40	CCCc1c(C(=O)NNc2cccc(Cl)c2)cnn1-c1ccccc1	i	-0.09
41	Cc1nn(-c2ccc(N3CCOCC3)nn2)c(C)c1CCC(=O)N1CCN(C)CC1	i	-0.17
42	CCCC1=C(C(=O)OCC)C(c2cc(Cl)cc(OC)c2OCC(=O)OCC)NC(=O)N1 (stereo not drawn)	i	-0.37
43	O=c1/c(=C\c2ccc(O)cc2)sc2n1C(c1ccccc1)C(c1ccccc1)=NN=2 (stereo not drawn)	i	-0.78
44	CC(NCC(O)c1ccc([N+](=O)[O-])cc1)C12CC3CC(CC(C3)C1)C2 (stereo not drawn)	i	1.3
45	COc1ccc(Nc2cc(=O)oc3ccccc23)cc1	i	-0.34
46	O=C(O)c1cccc(-n2c(/C=C/c3ccc([N+](=O)[O-])cc3)nc3ccccc3c2=O)c1	i	-0.03
47	COc1ccc(-n2c(C)cc(/C=N/Nc3nc(N4CCOCC4)nc(N4CCOCC4)n3)c2C)cc1	i	2.2
48	c1ccc(CN2CCN(C3=Nc4cccc5cccc3c45)CC2)cc1	i	1
49	CCN(CC)c1ccc(/C=C2/SC(=O)N(C(C)C)C2=O)o1	i	14
50	Brc1ccccc1C1=Nn2c(nnc2-c2ccco2)SC1	i	-0.95
51	CC1(C)CC2CC(C)(CN2CC(=O)C(C#N)c2ccccc2)C1 (stereo not drawn)	i	0.06
52	COC(=O)C1C(=O)C=C(Nc2ccc(F)cc2F)CC1c1ccc(OC)cc1 (stereo not drawn)	i	0.17
53	CCOc1ccc(-n2cc(C(=O)N3CCC(C)CC3)c3cc(OC)c(OC)cc3c2=O)cc1	i	-0.09
54	CCCCn1c2nc3ccccc3nc2c2c(=O)n(CCC(C)C)cnc21	i	0.02
55	COc1ccc(S(=O)(=O)Cc2ccc(C(=O)N3CCN(c4cc(Cl)ccc4C)CC3)o2)cc1	i	-0.05
56	O=C(NCc1cccs1)c1ccccc1	i	1.1
57	CCOC(=O)n1c(=O)n(Cc2ccc(OC)cc2)c2ccccc21	i	-0.02
58	O=C(COC(=O)/C=C/C(=O)OCC(=O)Nc1ccccc1F)Nc1ccccc1F	i	0.38
59	CCOc1ccc2nc(COC(=O)c3ccncc3)c(C(=O)c3ccccc3)[n+]([O-])c2c1	i	1.2
60	CC1(C)CC(=O)C(C=N)=C(O)C1	i	-0.49
61	CCOc1ncccc1C(=O)OCC(=O)N1CC(=O)Nc2ccccc21	i	0.72
62	COc1ccccc1NC(=S)N1CCN(c2nc(-c3ccccc3)cs2)CC1	i	-1.9
63	O=C(/C=C/c1cccc(Cl)c1)NCCc1ccccc1	i	0.06
64	Cc1cc2[nH]c3ccccc3c2cn1	i	-1.2
65	CN(C)CCC(=O)c1cccc(Br)c1	i	2.1
66	CCC(Sc1nc(-c2ccccc2)cc(=O)[nH]1)C(=O)O (stereo not drawn)	i	0.03
67	CC1(c2ccc(Cl)cc2Cl)NC(=O)N(CC(=O)Nc2cccnc2Cl)C1=O (stereo not drawn)	i	1.1
68	Cc1c(NC(=O)C(=O)N/N=C/c2cccs2)c(=O)n(-c2ccccc2)n1C	i	0.44
69	CCc1cc2c(N3CCN(c4nnc(CC)s4)CC3)ncnc2s1	i	-0.24
70	O=C(/C=C/c1ccc(F)cc1)NC(=S)N1CCCCC1c1cccnc1 (stereo not drawn)	i	-0.11
71	O=C(NC(Cc1ccccc1)C(=O)O)/C(=C/c1ccccc1)NC(=O)c1ccc(Br)o1 (stereo not drawn)	i	0.51
72	COc1ccccc1C(=O)N/N=C(\C)CC(=O)Nc1ccc(Nc2ccccc2)cc1	i	-1.4
73	CCOC(=O)C1(Cc2ccccc2C)CCCN(S(=O)(=O)CC)C1 (stereo not drawn)	i	0.03
74	CN(c1ccc(C(=O)Nc2ccccc2Sc2ccccc2)cc1)S(C)(=O)=O	i	-2.3
75	COc1ccc(S(=O)(=O)N2CCCC(C(=O)NCc3ccco3)C2)cc1OC (stereo not drawn)	i	0.06
76	O=C(CN1C(=O)/C(=C/c2ccccc2F)Sc2ccccc21)NCC1CCCO1 (stereo not drawn)	i	-1.5
77	CC(=O)Nc1ccc(-n2nnnc2SCC(=O)Nc2cccc(NC(=O)c3ccco3)c2)cc1	i	0.02
78	O=C(/C=C/c1ccc(Cl)c(Cl)c1)NCc1ccco1	i	0.23
79	COC(=O)/C(C#N)=C/N(C)C	i	0.67
80	COc1ccc(S(=O)(=O)N2CCC(C(=O)N[C@H](C(=O)N3CCCCCC3)C(C)C)CC2)cc1	i	-3.3
81	COC(=O)C1=NN(c2ccc(C)cc2)C2C(=O)N(c3ccccc3OC)C(=O)C12 (stereo not drawn)	i	0.09
82	COc1ccc(C2NC(c3ccc(OC)cc3)C(C)C(=O)C2C)cc1 (stereo not drawn)	i	2.6
83	Nc1nc(CSC(=S)N2CCN(c3ccccc3)CC2)nc(Nc2ccc(F)cc2)n1	i	0.14
84	COc1ccc(Br)cc1CN(C)CC(=O)Nc1c(Cl)cccc1Cl	i	0.28
85	CC(=N\NC(=O)c1cc(Br)ccc1O)/C(=N/O)C(=O)Nc1ccccc1	i	0.95
86	COc1ccc(C(=O)NCc2nnc(SCC(=O)N3CCOCC3)o2)cc1	i	-0.95
87	CN(C)c1ccc(NC(=O)CSc2nnc(-c3cnccn3)n2C)cc1	i	-0.9
88	CC1(C)C=C(c2ccc(O)cc2)CC(C)(C)N1	i	-0.57
89	CS(=O)(=O)c1nsc2nc(=O)c(/C=C3\C=Nc4ccccc43)c(N)n12	i	-1.2
90	CC(C)Cn1cc(Cl)c(=O)n(CC(C)C)c1=O	i	0.7

Next compounds follow.
nr	structure	KCNQ2 inh	KCNQ2 inh baseline
91	CC(=O)Nc1nnc(CSCc2ccc(F)cc2)s1	i	1.6
92	CCCCCCn1c(O)c(/C=C2\C=NN=C2c2ccccc2)sc1=S	i	2.3
93	O=C(CC1C(=O)NCCN1CC1CCCCC1)NCc1ccc(F)cc1F (stereo not drawn)	i	-1.3
94	COc1ccc(N(CC(=O)N/N=C/c2cc3ccc(OC)cc3nc2Cl)S(=O)(=O)c2ccccc2)cc1	i	1.4
95	CCC(C(=O)N1CCN(c2ccccc2OC)CC1)c1ccccc1 (stereo not drawn)	i	0.1
96	Cc1ccc(C)n1-c1ccc(N(C)C)cc1	i	-1.3
97	O=C(N/C(=C\c1ccco1)C(=O)N1CCCC1CO)c1ccccc1 (stereo not drawn)	i	0.6
98	O=C1c2ccccc2C(=O)N1c1n[nH]c(CCc2ccccc2)n1	i	1.5
99	Cc1cccc2c1CC(C)(C)N=C2C1=C(O)CC(C)(C)CC1=O	i	0.04
100	Cc1nccn1CCC(=O)Nc1ccc(Cl)cc1	i	-0.79
101	CCN1CCN(c2ccc(S(=O)(=O)N3CCCCC3)cc2NC(=O)/C=C/c2cccc(OC)c2OC)CC1	i	-0.27
102	C/C(=C\C(=O)Nc1cscc1C)C(=O)O	i	0.12
103	C=C(C)C(=O)O[C@H]1C/C(C)=C\C(=O)/C=C(\C)[C@H](O)[C@@H]2OC(=O)C(=C)[C@@H]21	i	-0.92
104	Cc1ccc(NC(=O)Cn2ccnc2)cc1C	i	1
105	Cc1ccc(-c2c[n+]3c(n2-c2ccccc2)SCC3)cc1	i	-0.77
106	COc1cccc(CNS(=O)(=O)c2c(C(=O)N3CCCC3)c(C)n(C)c2C)c1	i	-0.42
107	Cc1ccccc1C(=O)O/N=C/c1c(N2CCOCC2)n(C)c2ccccc12	-7.6*	-1.6*
108	CNS(=O)(=O)c1ccc(NS(=O)(=O)c2ccccc2F)cc1	i	-0.16
109	CC(C)(C)c1cnnn1-c1ccc(C=O)cc1	i	-1
110	CCCC(=NCCc1c(C)[nH]c2ccccc12)C1=C(O)CC(c2ccccc2)CC1=O (stereo not drawn)	i	-1
111	COc1ccc(-n2nnc3c(=O)n(CC(=O)N4CCC(C)CC4)cnc32)cc1	i	0.17
112	CCN1C(=O)[C@H]2[C@@H](c3ccc(-c4cccc(Cl)c4)c(OC)c3)N[C@@](Cc3ccccc3)(C(=O)OC)[C@H]2C1=O	i	-0.02
113	CCC(=O)c1ccc(OCC(=O)Nc2cc(S(=O)(=O)N3CCCCC3)ccc2N2CCN(CC)CC2)cc1	i	1.1
114	Cc1ccc(C(=O)N/C(=C\c2cn(S(=O)(=O)N(C)C)c3ccccc23)C(=O)NCCN2CCOCC2)cc1	i	-0.01
115	Cc1nn(Cc2c(Cl)cccc2Cl)c(C)c1NC(=O)CCCn1nc([N+](=O)[O-])c(Cl)c1C	i	1.8
116	O=Nc1onc(-c2ccc([N+](=O)[O-])cc2)c1NO	i	8.6
117	CN(C)CCCN(C(=O)c1ccc(S(=O)(=O)N(C)C2CCCCC2)cc1)c1nc2ccc(Br)cc2s1	i	-0.17

Another view of 2 compounds above.
Values run as follows: KCNQ2 inh, KCNQ2 inh baseline
[114] Cc1ccc(C(=O)N/C(=C\c2cn(S(=O)(=O)N(C)C)c3ccccc23)C(=O)NCCN2CCOCC2)cc1
  i, -0.01
[115] Cc1nn(Cc2c(Cl)cccc2Cl)c(C)c1NC(=O)CCCn1nc([N+](=O)[O-])c(Cl)c1C
  i, 1.8

These rows are one share of the data; the hit share may differ from the screen's.
